Marburg entry inh = inhibitors of Marburg virus binding or cell entry | Marburg virus pseudotyped entry inhibition, cell reporter; control for the full effect not named in the record; about a third of the inactives were read at about 46 µM | Potency, µM (titrated, usually from 37.8 µM), for the others: top-dose activity change, negative = inhibition, most hits filed as inhibitors | hit rate 1.8% among 300,000; active = well fitted inhibition curve with a large enough effect; inconclusive = small, poorly fitted or top-dose-only effect, or effect the other way; inactive = flat fitted curve, though single readings scatter; tested in HEK293 cells; about a fifth of its hits are not listed in these tables; further: on the % scale 0 is the no-effect control and ±100 the full control effect; luciferase read-out
SARS PLpro yeast = blocks SARS-CoV papain-like protease in a yeast assay | S. cerevisiae expressing SARS-CoV PLpro, growth rescue; control for the full effect not named in the record | Potency, µM (doses to about 32.9 µM), inactives show at the top dose activity, positive = growth rescue | hit rate 0.19% among 330,000 | AID 485353; further: 0% is about no effect; nearly all actives have a fitted effect of over 55% in size; growth read by luminescence after 48 h
2A StopGo = FMDV 2A StopGo reporter, luciferase signal; human cells with a luciferase reporter of 2A StopGo recoding; control for the full effect not named in the record; Potency, µM (top dose mostly 57.9 µM), inactives show top-dose signal change, negative = less light; hit rate 1.2% among 410,000; active = well fitted falling curve with a large enough effect; inconclusive = small, poorly fitted or top-dose-only effect; inactive = no such curve, though single readings can be large or run the other way; tested in HEK293T cells; further: on the % scale 0 is the no-effect control and ±100 the full control effect; nearly all actives have a fitted effect of over 45% in size; luciferase light after 4 h
Cruzain noTriton = inhibitors of Trypanosoma cruzi cruzain without detergent. purified cruzain, Z-FR-AMC fluorescence, no detergent. AID 1476. P25779. hit rate 2.3% among 200,000. Potency, µM, for inactives: max response, negative = inhibition, usual class: inhibitors; active means well fitted curve in the direction sought with a large enough effect; inconclusive means small, poorly fitted or top-dose-only effect, or another doubt; inactive means no such curve, though single readings can be large; an effect the other way counts as inactive or inconclusive;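 further: plate controls were enzyme without inhibitor for no effect and buffer without enzyme for full effect; nearly all actives have a fitted effect of over 40% in size; top concentration of the series not given in the record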
Target sequence (P25779 123-467 limits assumed): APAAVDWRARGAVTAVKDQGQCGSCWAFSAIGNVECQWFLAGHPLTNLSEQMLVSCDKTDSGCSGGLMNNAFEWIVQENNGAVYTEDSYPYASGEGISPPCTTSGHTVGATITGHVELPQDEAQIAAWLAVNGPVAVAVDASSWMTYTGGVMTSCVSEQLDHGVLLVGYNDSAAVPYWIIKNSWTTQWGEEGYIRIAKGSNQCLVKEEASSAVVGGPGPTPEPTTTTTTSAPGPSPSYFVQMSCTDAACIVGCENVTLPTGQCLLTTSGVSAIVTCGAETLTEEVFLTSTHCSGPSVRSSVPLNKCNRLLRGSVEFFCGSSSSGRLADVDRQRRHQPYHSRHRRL
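Purified cruzain at 1.5 nM, pre-incubated 15 min with compound at room temperature in 100 mM sodium acetate pH 5.5, 5 mM DTT, 0.00005% Triton X-100. Reaction started with 2 uM Z-FR-AMC; AMC fluorescence increase over 60 s gives rate.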
Cruzain Triton = blocks cruzain activity in presence of Triton detergent | purified cruzain, Z-FR-AMC fluorescence, 0.01% Triton | Potency, µM, for the others: max response, negative = inhibition, most hits filed as inhibitors | hit rate 0.43% among 200,000; active means well fitted curve in the direction sought with a large enough effect; inconclusive means small, poorly fitted or top-dose-only effect, or another doubt; inactive means no such curve, though single readings can be large; an effect the other way counts as inactive or inconclusive;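 further: plate controls were neutral wells for no effect and buffer without enzyme for full effect; nearly all actives have a fitted effect of over 40% in size; top concentration of the series not given in the record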
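Enzyme 1.5 nM, Z-FR-AMC 2 uM, NaOAc 100 mM pH 5.5, DTT 5 mM, Triton X-100 0.01%; 15 min RT compound preincubation; kinetic ex360/em450, 60 s delta.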
Lassa entry inh = inhibitors of Lassa virus binding or cell entry | Lassa virus pseudotype entry inhibition, cell reporter; control for the full effect not named in the record | Potency, µM (highest dose often 37.9 µM), for inactives: top-dose activity change, negative = inhibition, usual class: inhibitors | hit rate 1.2% among 300,000 | AID 540256; active means well fitted inhibition curve with a large enough effect; inconclusive means small, poorly fitted or top-dose-only effect, or effect the other way; inactive means flat fitted curve, though single readings scatter; tested in HEK293 cells; further: on the % scale 0 is the no-effect control and ±100 the full control effect; nearly all actives have a fitted effect of over 50% in size; luciferase read-out
RE007 growth inh = less growth of the S. pombe RE007 Vpr strain | hit rate 0.21% among 360,000 | Potency, µM (series often up to 92.2 µM), without a hit: at the highest dose activity change, negative = less growth | S. pombe RE007 Vpr strain, BacTiter-Glo ATP luminescence, 24 h; control for the full effect not named in the record | AID 651644; active = well fitted falling curve with a large enough effect; inconclusive = small, poorly fitted or top-dose-only effect; inactive = no such curve, though single readings can be large or run the other way;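 further: on the % scale 0 is the no-effect control and ±100 the full control effect; nearly all actives have a fitted effect of over 50% in size; the assay follows cell death caused by Vpr and the record does not say whether a fall means rescue or toxicity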
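Fission yeast strain RE007, carrying one chromosomally integrated HIV-1 vpr copy, was seeded at OD 0.01 in PMG+AL medium with 23 nL pinned compound. After 24 h at 30 °C and 99% humidity, viability was read by BacTiter-Glo luminescence.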
NS1 inh = inhibitors of influenza NS1 protein function; hit rate 0.4% among 270,000; S. cerevisiae slowed by influenza A NS1, growth recovery by OD600; Potency, µM (series often up to 46.1 µM), without a hit: at the top dose activity, positive = more growth; further: actives are rising curves; nearly all actives have a fitted effect of over 50% in size
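S. cerevisiae expressing influenza A NS1, grown in glucose, washed, then diluted 1:100 into pH 6.0 -URA galactose medium with 23 nl compound. Growth recovery read as OD600; NS1-free strain serves as control.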
* = called active by the depositor; ? = inconclusive; . = not tested or not shown; [ ] = remark or other dose. Unless noted, the call rests on the fitted dose curve; in most records, active means well fitted rising curve with a large enough effect; inconclusive means small, poorly fitted or top-dose-only effect; inactive means no such curve, though single readings can be large or run the other way. Potency means the concentration at half of the fitted maximal effect.

SMILES | Marburg entry inh | SARS PLpro yeast | 2A StopGo | Cruzain noTriton | Cruzain Triton | Lassa entry inh | RE007 growth inh | NS1 inh
CN1CCN(CCOCCOc2ccc(Br)cc2Cl)CC1 | . | 24% | -25% | . | . | . | 0% | 4%
CC(=O)O/N=C/c1c(NCc2ccccc2)nc2c(C)cccn2c1=O | -16%[14.2 µM] | 0% | ? | . | . | 1% | -12% | 1%
O=C1C[C@@H]2CCN3C(=O)CCC[C@@H]([C@H]23)[C@H]1Cc1ccccc1 | . | 4% | -7% | -7% | 0.0% | . | -5% | .
O=C(Nc1ccc(Cl)cc1)c1ccc(-n2cncn2)c([N+](=O)[O-])c1 | -18% | 1% | -26% | -7% | -8.5% | -6% | -20% | -7%
Cc1nc2ccccc2cc1C(=O)N/N=C/c1ccco1 | ? | 2% | -9% | 10% | -3.5% | 0% | 5% | 20%
Cc1ccc(-n2c(SCC(=O)Nc3ccc(Cl)cc3)nc(O)cc2=O)cc1 | 29%[46.1 µM] | 1% | 1% | . | . | 10%[46.1 µM] | -1% | -16%
COCCNc1cc(NCCOC)c([N+](=O)[O-])cc1[N+](=O)[O-] | 13% | 19% | -21% | -18% | -4.9% | -4% | 0% | 26%
CCOC(=O)c1c(C)[nH]c(C)c1S(=O)(=O)NCC(=O)N(C)c1ccc(C)c(C)c1 | . | . | 25% | 0% | -1.3% | 5%[46.1 µM] | . | .
CCc1ccc(NC(=O)c2ccc3c(c2)C(=O)N(CCOC)C3Nc2ccc(CC)cc2)cc1 (stereo not given) | -1% | 0% | 28% | ? | 0.4% | 26% | -7% | 10%
CCN1CCN(CCCNC(=O)C2CCCN(c3nnc(-n4cccc4)s3)C2)CC1 (stereo not given) | 2% | 9% | -5% | 4% | -1.5% | 1% | 12% | 5µM*
O=C(Nc1cccc(-c2nc3cccnc3s2)c1)c1cccnc1Cl | . | -3% | -10% | . | . | . | 0% | -65%
Cc1ccc(CN(C(=O)COc2cccc([N+](=O)[O-])c2)c2ccccn2)cc1 | ? | . | -8% | -10% | -2.3% | -30%[46.1 µM] | . | .
O=C(c1ccc2c(c1)N(Cc1ccc(F)cc1)CCS2)N1CCN(c2ccccc2)CC1 | ? | . | -16% | 7% | 1.4% | ? | . | .
CC(C)CN1C(=O)C(=O)N(CC(=O)c2ccc3c(c2)CCCC3)C1=O | ? | -6% | 18% | . | . | 0% | 4% | .
CCOc1ccc(N(Cc2cc3ccc(C)cc3[nH]c2=O)S(C)(=O)=O)cc1 | -12% | 13% | -25% | 6% | -4.4% | -10% | 8% | -20%
Cc1ccccc1NC(=O)CSc1cn[nH]n1 | 11%[46.1 µM] | 0% | 11% | . | . | 0% | 2% | -1%
OC[C@@H]1[C@@H](c2ccc(F)cc2)C(c2cccc(Cl)c2)=NN1c1ccccc1 | . | -78% | -29% | 32µM* | -0.4% | . | -13% | .
CN(CCNC(=O)Cn1c(=O)sc2ccccc21)Cc1ccccc1 | . | ? | -16% | -1% | 1.5% | . | 4% | 2%
CC(=O)Nc1ccccc1-c1nc2ccccc2n(CC(=O)c2ccc(C)c(C)c2)c1=O | -12%[46.1 µM] | . | -19% | -5% | -1.3% | -27%[46.1 µM] | . | .
CCOc1ccc(N(C)S(=O)(=O)c2ccc(C)c(C(=O)NCCc3ccc(OC)cc3)c2)cc1 | ? | 0% | -26% | . | . | ? | -7% | .
N/C(=N\c1nc(CSc2nc3ccccc3s2)cc(=O)[nH]1)Nc1ccc(F)cc1 | . | -1% | -23% | . | . | . | 6% | 8%
Cc1ccccc1NC(=O)N1CCCC1C(=O)NCc1ccccc1 (stereo not given) | . | 2% | -18% | . | . | . | -4% | 12%
CN(C)S(=O)(=O)c1ccc(NC(=S)NC(=O)c2cccs2)cc1 | -18%[46.1 µM] | 0% | 13% | . | . | 20%[46.1 µM] | -23% | 6%
CCOC(=O)/C=C1\Nc2ccccc2SC1=O | -21%[46.1 µM] | 1% | 72%[activator] | 6% | -0.3% | -21% | 2% | -6%
O=C(c1ccco1)N1CCN(c2c([N+](=O)[O-])nn(-c3ccc(Cl)cc3)[n+]2[O-])CC1 | 4%[46.1 µM] | ? | -21% | . | . | 1%[46.1 µM] | -2% | .

In another format: entries from further up.
molecule	Marburg entry inh	SARS PLpro yeast	2A StopGo	Cruzain noTriton	Cruzain Triton	Lassa entry inh	RE007 growth inh	NS1 inh
CCOC(=O)c1c(C)[nH]c(C)c1S(=O)(=O)NCC(=O)N(C)c1ccc(C)c(C)c1	.	.	25%	0%	-1.3%	5%[46.1 µM]	.	.
CCc1ccc(NC(=O)c2ccc3c(c2)C(=O)N(CCOC)C3Nc2ccc(CC)cc2)cc1 (stereo not given)	-1%	0%	28%	?	0.4%	26%	-7%	10%
CCN1CCN(CCCNC(=O)C2CCCN(c3nnc(-n4cccc4)s3)C2)CC1 (stereo not given)	2%	9%	-5%	4%	-1.5%	1%	12%	5µM*
O=C(Nc1cccc(-c2nc3cccnc3s2)c1)c1cccnc1Cl	.	-3%	-10%	.	.	.	0%	-65%
Cc1ccc(CN(C(=O)COc2cccc([N+](=O)[O-])c2)c2ccccn2)cc1	?	.	-8%	-10%	-2.3%	-30%[46.1 µM]	.	.
O=C(c1ccc2c(c1)N(Cc1ccc(F)cc1)CCS2)N1CCN(c2ccccc2)CC1	?	.	-16%	7%	1.4%	?	.	.

The results go on:
SMILES | Marburg entry inh | SARS PLpro yeast | 2A StopGo | Cruzain noTriton | Cruzain Triton | Lassa entry inh | RE007 growth inh | NS1 inh
Cc1cc(NC(=O)CSc2nc(-c3ccco3)cc(C(F)(F)F)n2)n(-c2ccccc2)n1 | ? | 15% | -5% | ? | -8.8% | ? | 26% | -40%
COc1ccccc1NC(=O)CCCN1C(=O)C2CC=CCC2C1=O (stereo not given) | 5% | -2% | -1% | . | . | 14% | 0% | -2%
COc1ccc(CCNC(=O)CNC(=O)c2ccco2)cc1 | -11%[46.1 µM] | 1% | -6% | . | . | 6%[46.1 µM] | 2% | -1%
CCOc1cc(C2NC(=O)NC(C)=C2C(=O)OC(C)CC)cc(Br)c1O (stereo not given) | ? | 1% | ? | 4% | -3.4% | ? | 1% | -5%
Cc1ccc(NC(=O)C2CCN(S(=O)(=O)c3ccccc3)CC2)cc1 | -17%[46.1 µM] | 0% | ? | . | . | ? | 18% | -10%
COc1cc(/C=N\NC(=O)c2ccc(C)nc2)ccc1OC(=O)c1ccco1 | ? | 12% | 19% | -6% | -5.4% | ? | 1% | -7%
COc1ccc(Cl)cc1NC(=O)c1cn(C2CCCCC2)c(=O)c2c1c1ccccc1n2C | 10%[46.1 µM] | . | -16% | 10µM* | -1.2% | ? | . | .
COc1cc(NC(=S)N2CCN(S(C)(=O)=O)CC2)cc(OC)c1 | 4%[46.1 µM] | 1% | 0% | . | . | 2%[46.1 µM] | -2% | 12%
CC(=O)N1CCc2cc(C(=O)CN3CCN(c4ccccc4F)CC3)ccc21 | . | 8% | -13% | -6% | -7.5% | . | 1% | -4%
Cc1cccn2c(=O)cc(COc3ccc(NC(=O)c4cccc(F)c4)cc3)nc12 | . | . | -11% | -2% | 2.7% | 13%[46.1 µM] | . | .
Cc1cc(NC(=O)CSc2nc(C(C)(C)C)nc3ccccc23)no1 | . | 0% | -46% | . | . | . | -19% | 1%
Cc1ccc(NC(=O)Cn2c(=O)ccc3cc(S(=O)(=O)N4CCC(C)CC4)ccc32)c(C)c1 | . | . | -6% | -1% | -2.2% | ? | . | .
COn1c(SCc2ccccc2)nc2ccccc2c1=O | -38% | -19% | -19% | -12% | -0.4% | ? | 1% | -115%
CC1(C)OC(=O)C(=CNc2ncccn2)C(=O)O1 | 1% | -1% | -6% | -2% | -4.0% | 0% | -3% | 6%
CC1CN(c2ccc([N+](=O)[O-])cc2F)CCN1C(=O)c1ccco1 (stereo not given) | ? | -2% | ? | . | . | -13% | ? | -38%
COc1ccc(CN2CCNCC2)cc1 | . | ? | -4% | . | . | . | -4% | -2%
O=C(Nc1cccc(S(=O)(=O)N2CCOCC2)c1)C(c1ccccc1)N1CCCCC1 (stereo not given) | ? | -2% | 8% | . | . | -10% | 13% | .
Cc1ccc(C(=O)N/C(=C\c2ccco2)C(=O)NCCN2CCOCC2)cc1 | 14%[46.1 µM] | 0% | -14% | . | . | 15% | -22% | 10%
O=C(C[n+]1cnn(CC(=O)c2ccc(Cl)cc2Cl)c1)c1ccc([N+](=O)[O-])cc1 | -4% | 16% | -21% | 1% | -5.1% | -15% | -17% | ?
Cc1cc(C(=O)Nc2nc(-c3ccccn3)cs2)ccc1[N+](=O)[O-] | ? | -20% | 3% | . | . | ? | ? | 5%
O=C1CN2C(=N1)N(Cc1ccccc1)c1ccccc12 | 2% | 3% | 10% | -8% | 0.1% | -1% | -4% | 4%
CC(=O)OCC(=O)C1(O)CCC2C3CCC4=CC(=O)C=CC4(C)C3C(=O)CC21C (stereo not given) | 26%[46.1 µM] | . | -15% | . | . | -10%[46.1 µM] | -1% | .
O=C(CCn1c(=S)[nH]c2ccccc2c1=O)N1CCOCC1 | . | 2% | 8% | -18% | 0.4% | . | 6% | -16%
Cc1ccc2[nH]c3c(NCCCN4CCCC4=O)ncnc3c2c1 | 6% | 1% | 17% | -24% | -24% | 21% | 0% | -6%
Cc1c(C=O)c(=O)n(-c2ccccc2)n1C | 3% | 5% | -9% | . | . | -5% | -4% | .
O=c1[nH]c(=O)n(CCc2ccc(F)cc2)c(O)c1C=NCc1ccc2c(c1)OCO2 | -27% | 0% | 14% | ? | 13µM* | ? | 0% | -2%
O=C(N/N=C/C1CC=CCC1)c1ccc(O)cc1O (stereo not given) | 1% | -14% | -2% | -2% | -4.4% | -1% | -11% | 5%
C=CCN1CCN(C(c2cc(OC)ccc2OC)c2nnnn2CC2CCCO2)CC1 (stereo not given) | 9% | 14% | -6% | 8% | 8.3% | -1% | 5% | -8%
CCOC(=O)c1sc(NC(=S)NC(=O)c2cccc(Cl)c2)c(C(=O)OCC)c1C | 9% | 0% | -3% | -22% | 4.9% | -7% | -5% | 12%

Screening data (PubChem BioAssay)

The order is random; about 4.8% have a hit in one of these screens.
